Screening results deposited in PubChem by several laboratories.
Autofluor counter: compound fluorescence in toxin protease inhibitor counterscreen. compound autofluorescence counterscreen, microsphere flow cytometry; stronger effect = higher value. fluorescence intensity (concentration not given with the values). actives 3.1% (n = 360,000). AID 624483;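 active = at least 3 SD above the mean of all compounds, about 16000 in these data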;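 note: 100 nL of 1 mM stock went into each well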
Sa RN4220 lethal: kills Staphylococcus aureus RN4220 | S. aureus RN4220 growth, OD600, 16 h | actives 0.33% (n = 330,000) | inhibition, % (concentration not given with the values);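 active = z-score of -3 or lower and OD600 up to 0.18 on both plates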;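 note: plate controls were untreated cells for no effect and reference antibiotic for full effect; stock transfer was 100 nL into about 80 µL; one replicate is shown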
BJeLR viability: kills HRASV12-expressing BJeLR cells; BJeLR (HRASV12) viability, CellTiter-Glo ATP luminescence, 48 h; reference of the scale not given here; inhibition, % (test concentration not listed); actives 0.17% (n = 300,000); AID 1554;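 active = replicate mean above 50%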;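 note: 50 nL library stock added to about 25 µL; numbers are from one replicate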
Mtb hypoxia rep: reduces hypoxia-regulated biosensor signal in M. tuberculosis; M. tuberculosis hypoxia-regulated fluorescent reporter, fluorescence; fluorescence inhibition, % (concentration not given with the values); actives 0.1% (n = 300,000); AID 1159583;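 active = 35 to 45% if threefold the growth effect, above 45% if 1.5-fold the growth effect; inactive = the rest, general growth blockers included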;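 note: wells of about 50 µL received 100 nL stock; 0% = vehicle wells and 100% = reference inhibitor wells; whole bacteria with a GFP reporter of the hypoxia response; strong numbers were not always called active; many hits fall short of the cut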
ugtP null kill: growth inhibition of S. aureus ugtP deletion strain; actives 0.54% (n = 330,000); growth inhibition, % (concentration not given with the values); S. aureus RN4220 ugtP deletion, OD600 growth, 16 h; some inactives read as strong as hits;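 active = z-score under -3 and OD600 up to 0.15 on both plates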;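 note: plate controls were untreated wells for no effect and antibiotic for full effect; wells of about 80 µL received 100 nL stock; the first replicate is given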
PrP UTR inh: suppresses PrP 5' UTR mRNA reporter expression; inhibition, % (no concentration beside the values); AID 488862; actives 0.35% (n = 340,000); cell-based PrP 5' UTR mRNA reporter, plate reader;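 active = every replicate at 50% or more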;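 note: 0 = median of the neutral control wells; tested in H4 reporter cells; numbers are from one replicate; inactives centre near -14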
Mtb hypoxia rep growth: recorded beside Mtb hypoxia rep, whose call it bears; growth inhibition, %; measured here: M. tuberculosis growth (absorbance);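 0% = vehicle and 100% = reference antibiotic; read after six days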
* = called active by the depositor; . = no result given.

No.	SMILES	Autofluor counter	Sa RN4220 lethal	BJeLR viability	Mtb hypoxia rep
1	O=C(NC1CC2CCCC(C1)N2C(=O)Nc1ccccc1Cl)C1CC1 (configuration not stated)	5050	2.4	-1.6	-1.0
2	CC(=O)N1CCc2cc(S(=O)(=O)NCCC3=CCCCC3)ccc21	3146	8.8	6.5	4.6
3	O=C1CCC/C=C\C[C@@H](CC(=O)N(CCO)Cc2ccccc2)C(=O)N[C@H](Cc2c[nH]c3ccccc23)CO1	3716	1.8	.	1.0
4	O=C(Cc1ccc(Br)cc1)N1CCCCCC1	2505	4.1	3.2	.
5	Cc1noc(C(=O)Nc2cccc(O)c2)c1Cl	4408	4.5	-9.5	12.0
6	CCn1nc(C)c(CN2CCC(Oc3ccc(C(=O)N4CCCC4)cc3)CC2)c1C	5056	0.4	12.4	6.4
7	C/C(=N\N(C)C)C1=C(O)c2ccccc2C1=O	2352	.	-5.2	.
8	COc1cc2cc(CCOC(=O)c3ccc(C#N)cc3)oc(=O)c2cc1OC	3372	7.9	.	7.6
9	COc1ccc(C2C3=C(CC(C)(C)CC3=O)Oc3ncn(Cc4ccccc4)c(=N)c32)cc1 (configuration not stated)	12368	-2.9	-4.1	0.7
10	Cc1cccc(C(=O)Oc2c(Br)cc(Br)cc2/C=N/NC(=O)c2ccncc2)c1	5471	.	-5.6	.
11	Cc1ccc(F)c(NC(=O)C2CCCCC2C(=O)O)c1 (configuration not stated)	13051	5.1	-0.6	6.6
12	CCC(CC)NC(=O)CON=Cc1ccc(Cl)cc1Cl	.	6.0	.	8.1

No.	Mtb hypoxia rep growth	ugtP null kill	PrP UTR inh
1	-7.8	7.1	-5.7
2	4.2	2.5	-30.2
3	2.0	9.3	-10.1
4	.	14.2	-41.7
5	-1.7	4.2	-33.6
6	2.4	10.5	-10.0
7	.	.	-22.1
8	13.7	5.1	-21.6
9	15.1	14.9	-13.9
10	.	.	-7.1
11	5.3	1.4	-20.1
12	12.6	-1.7	.

(cont.)
No.	SMILES	Autofluor counter	Sa RN4220 lethal	BJeLR viability	Mtb hypoxia rep
13	CC(Cc1c[nH]c2ccccc12)C(=O)NCc1ccco1 (configuration not stated)	3611	1.5	-6.8	4.6
14	CCOC(=O)Nc1cc(NC(=O)OCC)c(C)nc1C	5091	4.1	-6.9	9.3
15	Cc1c(NC(=S)NC(=O)C(C)(C)C)cccc1[N+](=O)[O-]	10915	-2.8	-8.6	16.0
16	CC(=O)Nc1cccc(OCCCNS(=O)(=O)c2ccc(F)cc2)c1	3854	6.1	-8.6	-1.2
17	CCO[C@H]1OC(C(=O)NCc2nc3ccccc3[nH]2)=C[C@@H](C2CCCCC2)[C@@H]1CCCO	3887	.	-2.4	.
18	S=c1nc[nH]c2c1cnn2Cc1ccccc1	3653	1.2	7.7	9.8
19	Cc1cc(S(=O)(=O)N2CCN(c3ccccn3)CC2)ccc1F	3339	2.5	7.4	3.4
20	COc1ccc(Cn2c(=O)[nH]c3cc(C(=O)N4CCN(c5ccccc5F)CC4)ccc3c2=O)cc1	5553	-2.2	5.2	-7.6
21	CCOc1cccc(=O)c2c(C)n(-c3ccc(C(=O)O)cc3)c(C)c12	3800	2.9	0.7	-7.6
22	O=C(NCc1ccccc1)C1=C[C@@H](c2ccc(Br)cc2)C[C@@H](OCc2ccc(CO)cc2)O1	4284	-17.4	5.2	9.8
23	COc1ccc(C(=O)Nc2nnc(Cc3cccs3)s2)cc1OC	2011	-2.0	0.7	.
24	O=C(CCS(=O)(=O)c1ccccc1)Nc1nc2c(s1)COc1ccccc1-2	4251	-11.1	1.7	2.8

No.	Mtb hypoxia rep growth	ugtP null kill	PrP UTR inh
13	-5.8	6.1	-3.7
14	2.0	5.0	-14.5
15	9.1	5.2	-13.7
16	4.0	12.5	-28.0
17	.	.	-10.9
18	10.9	0.5	1.7
19	-5.5	1.8	-22.6
20	1.6	9.6	-44.7
21	5.9	13.3	-22.0
22	3.3	-5.1	-7.0
23	.	0.7	-14.0
24	10.8	-5.0	12.2

Continued:
No.	SMILES	Autofluor counter	Sa RN4220 lethal	BJeLR viability	Mtb hypoxia rep
25	CCOc1ccc(NC(=S)NC(=O)/C=C/c2ccc(C)cc2)c([N+](=O)[O-])c1	10961	19.7	-5.5	2.0
26	CC1CCc2c(C(=O)N3CCN(S(=O)(=O)c4cccs4)CC3)csc2C1 (configuration not stated)	9769	-1.7	-0.8	-0.8
27	Cc1ccc(Nc2ccc(NCc3ccccc3)nn2)cc1C	10986	-0.5	7.6	0.4
28	C=CCn1c(SCC(=O)NCCc2ccccc2)nc2c([nH]c3ccccc32)c1=O	5179	1.5	-4.5	3.0
29	O=C(COC(=O)c1ccc(O)cc1)NCC1COc2ccccc2O1 (configuration not stated)	6122	-4.2	.	0.9
30	CCOc1ccc2nc(SCC(=O)NCc3ccccc3OC)[nH]c2c1	3724	1.1	7.4	3.0
31	COc1cc(C=O)ccc1OCCOc1ccccc1[N+](=O)[O-]	2031	6.3	11.8	8.3
32	Nc1ccc(C(=O)Nc2ccc3c(O)cc(S(=O)(=O)O)cc3c2)cc1	4133	1.8	.	5.4
33	Cc1cc(C(=O)NCC2CCCO2)n(-c2ccccc2)n1 (configuration not stated)	5835	1.3	-1.3	.
34	Cc1ccc(N2CCN(C(=O)N3CCOCC3)CC2)cc1C	3373	2.6	1.3	5.3
35	Cc1ccc(N2C(=O)Nc3cc(Cl)c(Cl)cc3N2O)cc1Cl	2463	-2.3	4.6	-2.0
36	Cc1nc2sc(C(c3ccc(Cl)cc3)N3CCN(CCO)CC3)c(O)n2n1 (configuration not stated)	5701	-13.1	-6.3	4.9

No.	Mtb hypoxia rep growth	ugtP null kill	PrP UTR inh
25	8.3	-3.4	3.7
26	6.7	-0.3	-21.8
27	6.5	-8.0	-37.4
28	-4.9	-1.1	-20.4
29	4.7	-2.4	-21.3
30	-0.8	8.6	-13.2
31	8.5	4.2	-36.2
32	-5.9	1.1	-5.1
33	.	2.4	-22.0
34	-2.5	0.5	-14.1
35	3.4	-11.2	-14.9
36	13.6	-0.8	-1.3

Further structures.
No.	SMILES	Autofluor counter	Sa RN4220 lethal	BJeLR viability	Mtb hypoxia rep
37	CCN1C[C@@]2(COC)C3[C@@H](OC)[C@H]4[C@@H]1[C@@]3(C1C[C@H]3[C@H](O)C1[C@]4(O)C[C@H]3OC)[C@@H](OC)C[C@H]2O (some centres not stated)	5523	4.2	1.5	.
38	O=C(NCc1cn(-c2ccccc2)nc1-c1ccccc1)c1ccc([N+](=O)[O-])cc1	2179	-5.5	-2.0	-4.5
39	Cc1cc(NC(=O)CN2CCOCC2)n(-c2ccccc2)n1	4385	4.6	-0.3	1.6
40	Oc1c(Br)cc(Br)cc1C=Nc1nc2c(s1)CCCC2	.	2.7	.	-3.1
41	O=C(c1ccco1)N1CCN(Cc2nc(-c3cccs3)no2)CC1	4309	1.2	13.5	7.5
42	CCCC(=O)NC(Nc1ccc(S(=O)(=O)Nc2cc(C)on2)cc1)(C(=O)OCC)C(F)(F)F (configuration not stated)	8537	3.4	6.1	14.1
43	Cc1ccc(N(CC(=O)N2CCOCC2)S(C)(=O)=O)cc1Cl	3120	1.9	-16.4	-7.5
44	O=C(NC1CCCCC1)N1CCCCCCC1	2450	22.3	0.2	9.3
45	O=C(Nc1cccc(Br)c1)c1ccccc1-c1ccccc1	2190	17.6	5.5	10.0
46	CC(C)(C)c1ccc(C(=O)CSc2n[nH]c(=O)[nH]c2=O)cc1	10051	10.1	12.7	3.5
47	C=CCn1c2ccccc2c2nn(C)c(=S)nc21	3410	2.6	-6.1	2.7
48	CCC(C)NC(=O)C1CCC(CNS(=O)(=O)c2ccc3c(c2)CC(C)N3C(=O)C2CC2)CC1 (configuration not stated)	5598	-1.9	6.8	-8.4

No.	Mtb hypoxia rep growth	ugtP null kill	PrP UTR inh
37	.	-8.6	-24.7
38	-5.5	-15.1	-26.5
39	3.5	5.5	-26.5
40	-5.6	19.5	.
41	15.4	7.0	-42.0
42	17.2	1.0	-2.3
43	-0.5	6.1	-4.3
44	9.9	12.6	0.2
45	7.9	-0.1	-14.3
46	8.2	5.1	-15.3
47	5.6	14.1	-3.9
48	-6.9	-0.6	-4.8

(listing goes on)
No.	SMILES	Autofluor counter	Sa RN4220 lethal	BJeLR viability	Mtb hypoxia rep
49	O=C(N/N=C/c1cccc(O)c1)c1cc(C2CC2)nc2ccccc12	3910	.	4.0	.
50	Cc1ccc(S(=O)(=O)N2CCC(=O)N(CCOC(=O)Nc3ccccc3C)CC2)cc1	4020	7.3	6.0	9.3
51	CCOc1ccc(NC(=O)CN(C)C(=O)CCN2C(=O)C3CC=CCC3C2=O)cc1OCC (configuration not stated)	4046	1.3	.	5.6
52	O=c1c2ccccc2nc2n1C(CSCc1ccc(Cl)cc1)CS2 (configuration not stated)	2615	3.4	4.1	.
53	N#Cc1ccccc1OCC(=O)OCC(=O)NC1CCS(=O)(=O)C1 (configuration not stated)	3090	3.2	.	2.7
54	O=C(COC(=O)c1cccc(C(F)(F)F)c1)NC(=O)NC1CCCC1	6149	2.9	.	-7.9
55	c1ccc2c(c1)OCCc1c-2[nH]c2ccccc12	4029	-6.6	10.1	3.2
56	CC(OC(=O)CN(C)S(=O)(=O)c1ccc(Cl)cc1)C(=O)Nc1ccc(N2CCOCC2)cc1 (configuration not stated)	3126	-7.5	9.2	20.8
57	S=c1[nH]nc(-c2cc(-c3ccco3)[nH]n2)n1-c1ccccc1Cl	4547	-9.9	-9.4	21.7
58	CN(C)N=Cc1ccc(OS(=O)(=O)c2ccccc2)cc1	.	8.1	.	-6.6
59	O=C(CN1CCOCC1)Nc1cccc([N+](=O)[O-])c1	3215	1.4	2.6	8.7
60	CCOC(=O)Cn1c(=O)n(CC(=O)OCC)c2ccccc21	4230	3.9	-14.2	6.3

No.	Mtb hypoxia rep growth	ugtP null kill	PrP UTR inh
49	.	.	-6.3
50	1.7	8.4	-17.1
51	2.0	1.4	-21.9
52	.	8.9	-11.9
53	2.5	1.1	-21.8
54	2.4	4.0	-9.6
55	8.5	47.2	-12.5
56	8.0	-1.7	-14.3
57	25.8	-1.2	-24.3
58	-6.3	-4.3	.
59	4.0	13.4	-2.3
60	5.5	-7.4	-14.3

Brought forward from above: four compounds; new compounds follow.
No.	SMILES	Autofluor counter	Sa RN4220 lethal	BJeLR viability	Mtb hypoxia rep
57	S=c1[nH]nc(-c2cc(-c3ccco3)[nH]n2)n1-c1ccccc1Cl	4547	-9.9	-9.4	21.7
58	CN(C)N=Cc1ccc(OS(=O)(=O)c2ccccc2)cc1	.	8.1	.	-6.6
59	O=C(CN1CCOCC1)Nc1cccc([N+](=O)[O-])c1	3215	1.4	2.6	8.7
60	CCOC(=O)Cn1c(=O)n(CC(=O)OCC)c2ccccc21	4230	3.9	-14.2	6.3
61	CC(=O)N1CCC(C(=O)c2ccc(Cl)cc2)CC1	3558	2.5	-6.5	.
62	Cc1ccc(C)c(Oc2cc(NN3CCCCC3)c([N+](=O)[O-])cc2[N+](=O)[O-])c1	3472	-0.7	0.2	5.1
63	CCOc1ccccc1NC(=O)NC(=O)N(C)S(C)(=O)=O	5490	2.0	0.7	1.5
64	COc1cnc(-c2ccccc2)nc1OC	4982	-0.4	4.7	11.1
65	NS(=O)(=O)c1ccc(S(=O)(=O)N2CCCC2)cc1	4354	-2.0	-1.8	-6.5
66	Cc1cccc(C)c1NC(=O)CN(C)C(C)C(=O)NCC(=O)Nc1ccc(F)c(F)c1F (configuration not stated)	4219	0.0	.	3.1
67	O=C(NCC1CCCO1)c1c(O)c2cccc3c2n(c1=O)CCC3 (configuration not stated)	.	-4.9	-17.9	6.7
68	O=C(/C=C/c1ccccc1)Oc1ccc(C(=S)N2CCOCC2)cc1	3741	12.4	3.6	-3.9
69	O=C(NCc1nc2ccccc2[nH]1)C1=C[C@H](c2ccc(Br)cc2)C[C@H](OCc2ccc(CO)cc2)O1	3681	.	3.3	.

No.	Mtb hypoxia rep growth	ugtP null kill	PrP UTR inh
57	25.8	-1.2	-24.3
58	-6.3	-4.3	.
59	4.0	13.4	-2.3
60	5.5	-7.4	-14.3
61	.	4.4	-3.8
62	-5.2	-0.5	-10.5
63	0.7	7.1	-13.4
64	0.0	-1.3	-35.9
65	5.7	-5.9	-2.6
66	-0.3	3.7	-22.3
67	22.1	-7.1	-13.4
68	-3.8	18.5	-9.6
69	.	.	-10.3
